# Screening data as filed in PubChem BioAssay.
# NPYLR7 agonist: agonists of mosquito NPYLR7 receptor, primary screen, cell-based, Aedes aegypti, calcium fluorescence, mosquito biting behavior. Aedes aegypti neuropeptide Y-like receptor 7 (NPYLR7). HEK293T NPYLR7/Galpha15, GCaMP6s calcium fluorescence. activation, % at 10 µM. 270,000 tested, 0.15% active; in the data active means activation above about 40%;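 further: 0% = vehicle and 100% = reference agonist at the receptor; some compounds past the cut are filed as inactive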
# NPYLR7 agonist max-min: recorded beside NPYLR7 agonist, whose call it bears; activation, %; measured here: Max-Min RFU normalised activation; some inactives read as strong as hits;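 span of the calcium signal over five minutes; 0% = vehicle and 100% = native peptide agonist; compound fluorescence can raise it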
# * hit, by the source's call.
# Start of the data: the first 26 records, to show the layout:
SMILES,NPYLR7 agonist,NPYLR7 agonist max-min
COc1ccc(C(=O)Nc2cccc(-c3nc4cc(Cl)ccc4o3)c2C)cc1[N+](=O)[O-],8,5
CN(Cc1ccccc1)[C@@H]1[C@@H](O)C[C@@H]2C[C@H](c3ccccn3)OC[C@@]21O,8,12
CCCCOc1ccc(-c2cc3c(=O)n(Cc4nc(-c5ccccc5C)no4)ccn3n2)cc1,0,-6
Cc1cccc(C(=O)Nc2ccc(OC3CCOCC3)c(C)c2)n1,-21,-23
Cc1cnc(SCCN2CCOCC2)nc1C1CCCN(C(=O)C2Cc3ccccc3O2)C1 (centres undefined),25,9
O=C(CNCc1ccccc1)N1CCOC(C(F)(F)F)C1 (centres undefined),11,11
CCCCCNC(CC(=O)Nc1c(C)cc(C)cc1C)C(=O)O (centres undefined),-2,-2
CC1C(=O)N(c2ccccc2Cl)CCN1C(=O)c1cccc(Br)c1 (centres undefined),-10,-7
Cc1ccc(C)c(-n2nc(-c3cccs3)cc2C(=O)NC(Cc2ccccc2)c2ccccc2)c1 (centres undefined),17,15
Cc1c(C(=O)N2CCCCC2)sc(NC(=O)c2ccc(Cl)cc2)c1C#N,-10,-18
CCN(C)c1c(C)nc2c(OCc3ccccc3C)cccn12,34,17
CCOC(=O)c1ccccc1NC(=O)Cn1c(-c2nnc(CC)o2)cc2ccccc21,-4,-3
CC1Cc2ccccc2N1C(=O)CN1C(=O)c2ccccc2C1=O (centres undefined),2,-3
CNC(=O)c1ccsc1NC(=O)c1cc(Cl)sc1Cl,3,3
CN(C)C(CNS(=O)(=O)CC12CCC(CC1=O)C2(C)C)c1ccco1 (centres undefined),-3,-2
Cc1ccc(Nc2cc(Cl)nc(N)n2)cc1Cl,-2,3
COc1ccccc1-c1nc2cc(C)ccn2c1NC(=O)c1cccc(Cl)c1,-3,2
C#CCOc1c(C=O)cc(C)cc1C(C)(C)C,4,2
CC1C(=O)N(c2ccc3c(c2)OCO3)CCN1C(=O)c1ccccc1Cl (centres undefined),-11,-2
O=C(c1cccc2ccnn12)N(Cc1cccnc1)Cc1ccsc1,5,3
Cc1ccc(S(=O)(=O)NC(=O)C2(C)CCN2C(=O)Cc2ccsc2)nc1 (centres undefined),4,2
CC(C)(C)c1ccc(C(=O)N2CCC2(C)C(=O)NCc2cccc3ccccc23)cc1 (centres undefined),-5,-4
COc1ccccc1CCC(=O)N1CCC(CCC(=O)Nc2ccccc2)CC1,7,-1
O=C(Nc1nc(-c2ccccc2)cs1)c1ccc2c(c1)OCO2,18,13
O=C(O)CSc1nnc(-c2cccnc2)n1-c1ccccc1C(F)(F)F,-3,-4
O=C(C1CCCC1)N(Cc1csc(COc2ccc(Cl)cc2)n1)C1CC1,2,8

# Main list, repeating the preview:
SMILES,NPYLR7 agonist,NPYLR7 agonist max-min
COc1ccc(C(=O)Nc2cccc(-c3nc4cc(Cl)ccc4o3)c2C)cc1[N+](=O)[O-],8,5
CN(Cc1ccccc1)[C@@H]1[C@@H](O)C[C@@H]2C[C@H](c3ccccn3)OC[C@@]21O,8,12
CCCCOc1ccc(-c2cc3c(=O)n(Cc4nc(-c5ccccc5C)no4)ccn3n2)cc1,0,-6
Cc1cccc(C(=O)Nc2ccc(OC3CCOCC3)c(C)c2)n1,-21,-23
Cc1cnc(SCCN2CCOCC2)nc1C1CCCN(C(=O)C2Cc3ccccc3O2)C1 (centres undefined),25,9
O=C(CNCc1ccccc1)N1CCOC(C(F)(F)F)C1 (centres undefined),11,11
CCCCCNC(CC(=O)Nc1c(C)cc(C)cc1C)C(=O)O (centres undefined),-2,-2
CC1C(=O)N(c2ccccc2Cl)CCN1C(=O)c1cccc(Br)c1 (centres undefined),-10,-7
Cc1ccc(C)c(-n2nc(-c3cccs3)cc2C(=O)NC(Cc2ccccc2)c2ccccc2)c1 (centres undefined),17,15
Cc1c(C(=O)N2CCCCC2)sc(NC(=O)c2ccc(Cl)cc2)c1C#N,-10,-18
CCN(C)c1c(C)nc2c(OCc3ccccc3C)cccn12,34,17
CCOC(=O)c1ccccc1NC(=O)Cn1c(-c2nnc(CC)o2)cc2ccccc21,-4,-3
CC1Cc2ccccc2N1C(=O)CN1C(=O)c2ccccc2C1=O (centres undefined),2,-3
CNC(=O)c1ccsc1NC(=O)c1cc(Cl)sc1Cl,3,3
CN(C)C(CNS(=O)(=O)CC12CCC(CC1=O)C2(C)C)c1ccco1 (centres undefined),-3,-2
Cc1ccc(Nc2cc(Cl)nc(N)n2)cc1Cl,-2,3
COc1ccccc1-c1nc2cc(C)ccn2c1NC(=O)c1cccc(Cl)c1,-3,2
C#CCOc1c(C=O)cc(C)cc1C(C)(C)C,4,2
CC1C(=O)N(c2ccc3c(c2)OCO3)CCN1C(=O)c1ccccc1Cl (centres undefined),-11,-2
O=C(c1cccc2ccnn12)N(Cc1cccnc1)Cc1ccsc1,5,3
Cc1ccc(S(=O)(=O)NC(=O)C2(C)CCN2C(=O)Cc2ccsc2)nc1 (centres undefined),4,2
CC(C)(C)c1ccc(C(=O)N2CCC2(C)C(=O)NCc2cccc3ccccc23)cc1 (centres undefined),-5,-4
COc1ccccc1CCC(=O)N1CCC(CCC(=O)Nc2ccccc2)CC1,7,-1
O=C(Nc1nc(-c2ccccc2)cs1)c1ccc2c(c1)OCO2,18,13
O=C(O)CSc1nnc(-c2cccnc2)n1-c1ccccc1C(F)(F)F,-3,-4
O=C(C1CCCC1)N(Cc1csc(COc2ccc(Cl)cc2)n1)C1CC1,2,8
Cc1cccc(COCC2CN(C(=O)C3CCC(N(Cc4ccc(F)cc4)C(=O)OC(C)(C)C)CC3)CCO2)c1 (centres undefined),20,16
COc1ccccc1/C=C/CN1CCCC(CCC(=O)Nc2cc(Cl)ccc2OC)C1 (centres undefined),4,2
O=C(NCCC1COc2ccccc2O1)c1ccc(-c2cccnc2)nc1 (centres undefined),13,10
COCCN(CC(=O)Nc1cc(C(C)(C)C)nn1-c1ccc(C)cc1C)C(=O)Nc1ccccc1F,4,14
COC(=O)c1cc2c(=O)n(-c3ccccc3C(F)(F)F)ccc2nc1C,-2,-1
CCOC(=O)CSc1nnc(Cn2ccc(=O)[nH]c2=O)o1,-2,5
Cn1c(=O)[nH]c(=O)c2c1nc(N1CCOCC1)n2CCSc1nc2ccccc2s1,0,0
COCCn1cc(NC(=O)NCc2cccc(OC)c2)c2ccccc21,17,10
O=C(Cc1ccccc1F)NCCC(=O)N1CCCc2ccccc21,1,-1
O=C(N=Nc1c(O)[nH]c2ccc(Br)cc12)c1nc2ccccc2c(=O)[nH]1,2,1
CN1CCC2(CC1)CN(C(=O)C1(Nc3ccccc3)CCCC1)CCN2C,7,5
COc1ccc(-c2nn(-c3ccc(C)cc3C)c(OC(C)=O)c2-c2ccc(NC(=O)C3CCCC3)cc2)c(OC)c1,3,7
Cc1ccc(-c2nc3ccc(C)cn3c2NC(=O)CCC2CCCC2)cc1,-4,-4
COc1ccc(S(=O)(=O)N(C)CCOc2ccccc2Cl)cc1NC(C)=O,10,4

# Compound profiles, as listed above. Screens in order: NPYLR7 agonist	NPYLR7 agonist max-min
# C#CCOc1c(C=O)cc(C)cc1C(C)(C)C across the screens: 4	2
# O=C(NCCC1COc2ccccc2O1)c1ccc(-c2cccnc2)nc1 (centres undefined) across the screens: 13	10

# Other compounds
SMILES,NPYLR7 agonist,NPYLR7 agonist max-min
CN(CCOc1cccc(F)c1)CC(O)c1c(F)cccc1F (centres undefined),7,6
COc1ccc(OC)c2c1sc(=NC(=O)c1nc3ccccc3s1)n2C,1,49
Cc1cccc(C(NC(=O)CCN2CCCCO2)c2cccs2)c1 (centres undefined),-6,-8
Cc1cc(C)cc(N2CCCn3c2nc2c3c(=O)[nH]c(=O)n2C)c1,17,6
COCCCNC(=O)C(C1CCCC1)N1CCN(C(=O)c2ccc3c(c2)OCO3)CC1 (centres undefined),-7,3
COc1ccc(CN2CCNC(=O)C2CC(=O)NCCCSC)cc1OC (centres undefined),4,2
Cc1ccc(CN2CCN(Cc3nc4c(s3)CCCC4)CC2CCO)o1 (centres undefined),-2,-4
Cc1cc(N2CCN(Cc3c(C)noc3C)CC2)nc(C)n1,7,2
O=C(CCC1CCN(c2ncccc2Cl)CC1)NC1CCN(Cc2ccccc2)C1 (centres undefined),12,5
CCc1cc(C(=O)N2CCc3c(nc(-c4ccncc4)nc3N(C)C)C2)on1,3,-6
Cc1cnccc1N1CCCN(c2nc(N(C)C)nc3c2CCNC3)CC1,5,-4
Cc1nn(-c2ccccc2)c2[nH]cc(C(=O)N(Cc3ccccc3)c3ccccc3)c(=O)c12,-1,29
CCc1cccc2c1Sc1ccccc1CC2N1CCNCC1 (centres undefined),1,-2
Cc1ccc(OCCSc2nc3ccccc3n2Cc2ccccc2)cc1C,6,6
CC(C)NS(=O)(=O)c1ccccc1CN,-3,-8
COc1ccc(NS(=O)(=O)c2ccc(OC)c(OC)c2)c(C(=O)NCc2ccccc2)c1,12,15
CC(C)CNC(=O)C1CSCN1C(=O)C1CC(=O)N(C2CCCC2)C1 (centres undefined),1,11
CCc1nnc(CN(CC)C(=O)CCn2c(C)cc3ccccc32)o1,10,6
Cc1cccc(-n2nc(C)c(C(=O)N3CCOCC3)c2C(C)C)c1,22,30
C=CCNC(=O)c1cc([N+](=O)[O-])cc2c(=O)[nH]c(Nc3ccc(Cl)c(Cl)c3)nc12,-19,-24

# As entered above.
# Reading of CN(CCOc1cccc(F)c1)CC(O)c1c(F)cccc1F (centres undefined) under NPYLR7 agonist max-min: 6
# Reading of CCc1cc(C(=O)N2CCc3c(nc(-c4ccncc4)nc3N(C)C)C2)on1 under NPYLR7 agonist: 3
# Reading of Cc1nn(-c2ccccc2)c2[nH]cc(C(=O)N(Cc3ccccc3)c3ccccc3)c(=O)c12 under NPYLR7 agonist: -1
# Reading of Cc1cc(C)cc(N2CCCn3c2nc2c3c(=O)[nH]c(=O)n2C)c1 under NPYLR7 agonist: 17
# Reading of CCc1cccc2c1Sc1ccccc1CC2N1CCNCC1 (centres undefined) under NPYLR7 agonist max-min: -2

# The listing continues:
SMILES,NPYLR7 agonist,NPYLR7 agonist max-min
O=c1[nH]nc(-c2ccc(F)cc2)c2sc(N3CCOCC3)nc12,-5,-6
C=CCNC(=O)c1c(C)c(C(=O)OCC)n(C)c1C,3,24
O=C(c1cc(CN2CCOCC2)on1)N1CCCCC1CCc1cccs1 (centres undefined),6,5
O=P(c1ccccc1)(c1ccccc1)C(O)c1ccccn1 (centres undefined),-1,-2
COCC(C)N1CCN(c2nc(C(C)C)ns2)CC1 (centres undefined),1,1
COCCCN(CC(=O)N(CCc1c[nH]c2ccccc12)Cc1ccc(Cl)c(Cl)c1)C(=O)c1cc(Cl)cc(Cl)c1,1,8
C=C(C)[C@@H]1Cc2cc3c(cc2O1)OC[C@@]1(O)c2ccc(O)cc2O[C@@H]31,-11,-14
CN(C)C(=O)C1CCCN1c1ccc(S(=O)(=O)C(F)F)cc1 (centres undefined),1,17
O=C(CNC(=O)c1ccccc1)N=Nc1c(O)[nH]c2ccc(Br)cc12,-1,-10
O=C(c1ccc2c(c1)OCO2)N1CCCC(OCc2ccc(Br)cc2)C1 (centres undefined),17,13
COCc1cc(C)nc(NN=Cc2ccc(-c3ccc(Cl)c([N+](=O)[O-])c3)o2)c1C#N,5,-7
CCCC(NC(=O)c1cnn(CC)c1C)c1nccn1C (centres undefined),6,2
CC(C)=CC(=O)NS(=O)(=O)c1ccc(CNC(N)=O)cc1,5,1
CSc1ccccc1Nc1ncnc(N)c1[N+](=O)[O-],0,-7
C=CCN1C(=O)C(=Cc2cccc(O)c2)SC1=S,10,13
COC(=O)Cc1cc(OC(C)=O)n(-c2ccc(F)cc2)n1,3,-2
CC(=O)N1CCc2ccc(S(=O)(=O)N3CCOC(C)C3)cc21 (centres undefined),10,3
COCCNC(=O)C1(C)CCCN(Cc2sc(C)nc2C)C1 (centres undefined),3,1
CSCc1ccc(C(=O)N2CCCC(C(=O)c3ccc(Oc4ccccc4)cc3)C2)o1 (centres undefined),-2,-8
Cc1ccc(C)c(Cn2cnc3c(nnn3-c3ccc(Cl)cc3)c2=O)c1,-6,-8
CN(C)C(=O)Cn1cnc2sc3c(c2c1=O)CCCC3,1,2
N#Cc1cccc(OC2CC3CCC(C2)N3C(=O)c2ccc(CSc3nc4ccc(Cl)cc4o3)cc2)c1 (centres undefined),5,-6
COc1ccc(CCN(Cc2ccc(C)o2)C(=O)CN(CCN2CCCC2)C(=O)C2CCCC2)cc1OC,1,10
CCCc1nc(N2CCN(C(=O)c3ccccc3OC)CC2)c2c(C)nn(-c3ccc(F)cc3)c2n1,-5,-6
COc1cccc(C(=O)N(Cc2c(-c3ccc(F)cc3)noc2N2CCN(C)CC2)C(C)C)c1,7,8
COc1ccc(Cl)cc1N1CCN(Cc2ccc(F)cc2F)C(C)C1=O (centres undefined),-3,-2
O=C(Nc1cccc(-c2cc3ccccc3[nH]2)c1)C1CCCN(Cc2ccccn2)C1 (centres undefined),6,8
CC=CCn1c(SCC(=O)c2ccccc2)nc2c1c(=O)[nH]c(=O)n2C,7,3
Cc1ccc(C)c(S(=O)(=O)N(Cc2ccccc2)C2C=CS(=O)(=O)C2)c1 (centres undefined),-2,-1
O=S1(=O)CCN2C(c3ccc(Cl)cc3)=CSC2=N1,4,3

# The list is partial, so the mix of outcomes need not match the whole.
